SARS PLP yeast – SARS-CoV PLP inhibition in yeast | Potency, µM (highest dose often 32.9 µM), without a hit: at the highest dose activity, positive = growth rescue | 330,000 tested, 0.19% active | S. cerevisiae expressing SARS-CoV PLpro, growth rescue; control for the full effect not named in the record; active means well fitted rising curve with a large enough effect; inconclusive means small, poorly fitted or top-dose-only effect; inactive means no such curve, though single readings can be large or run the other way; also: 0% is about no effect; nearly all actives have a fitted effect of over 55% in size; growth read by luminescence after 48 h
NS1 inh – influenza NS1 inhibition. S. cerevisiae slowed by influenza A NS1, growth recovery by OD600. Potency, µM (series often up to 46.1 µM), for the others: at the highest dose activity, positive = more growth. 270,000 tested, 0.4% active. AID 2326; active means well fitted rising curve with a large enough effect; inconclusive means small, poorly fitted or top-dose-only effect; inactive means no such curve, though single readings can be large or run the other way; also: nearly all actives have a fitted effect of over 50% in size
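In this qHTS, NS1 from influenza A is expressed in budding yeast, where it slows growth. Cells are switched from glucose to 2% galactose medium (pH 6.0, -URA), treated with compound, and growth recovery is read at OD600.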
2A StopGo – FMDV 2A StopGo reporter, luciferase signal | human cells with a luciferase reporter of 2A StopGo recoding; control for the full effect not named in the record | Potency, µM (series often up to 57.9 µM), for inactives: at the highest dose signal change, negative = less light | 410,000 tested, 1.2% active | AID 1159524; active = well fitted falling curve with a large enough effect; inconclusive = small, poorly fitted or top-dose-only effect; inactive = no such curve, though single readings can be large or run the other way; tested in HEK293T cells; also: % is scaled to controls: 0 for no effect and ±100 for the full control effect; nearly all actives have a fitted effect of over 45% in size; luciferase light after 4 h
Marburg entry inh – blocks Marburg virus binding to or entry into cells; Marburg virus pseudotyped entry inhibition, cell reporter; control for the full effect not named in the record; about a third of the inactives were read at about 46 µM; AID 540276; 300,000 tested, 1.8% active; Potency, µM (series often up to 37.8 µM), for the others: at the top dose activity change, negative = inhibition, actives largely listed as inhibitors; active = well fitted inhibition curve with a large enough effect; inconclusive = small, poorly fitted or top-dose-only effect, or effect the other way; inactive = flat fitted curve, though single readings scatter; tested in HEK293 cells; about a fifth of its hits are not listed in these tables; also: % is scaled to controls: 0 for no effect and ±100 for the full control effect; luciferase read-out
Lassa entry inh – Lassa virus entry inhibition | Lassa virus pseudotype entry inhibition, cell reporter; control for the full effect not named in the record | Potency, µM (highest dose often 37.9 µM), for the others: at the top dose activity change, negative = inhibition, actives largely listed as inhibitors | 300,000 tested, 1.2% active | AID 540256; active means well fitted inhibition curve with a large enough effect; inconclusive means small, poorly fitted or top-dose-only effect, or effect the other way; inactive means flat fitted curve, though single readings scatter; tested in HEK293 cells; also: % is scaled to controls: 0 for no effect and ±100 for the full control effect; nearly all actives have a fitted effect of over 50% in size; luciferase read-out
Cruzain inh noDet – blocks cruzain activity in detergent-free assay; AID 1476; purified cruzain, Z-FR-AMC fluorescence, no detergent; 200,000 tested, 2.3% active; Potency, µM, inactives show max response, negative = inhibition, most hits filed as inhibitors;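 also: plate controls were enzyme without inhibitor for no effect and buffer without enzyme for full effect; nearly all actives have a fitted effect of over 40% in size; top concentration of the series not given in the record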
Target sequence (P25779 123-467 limits assumed): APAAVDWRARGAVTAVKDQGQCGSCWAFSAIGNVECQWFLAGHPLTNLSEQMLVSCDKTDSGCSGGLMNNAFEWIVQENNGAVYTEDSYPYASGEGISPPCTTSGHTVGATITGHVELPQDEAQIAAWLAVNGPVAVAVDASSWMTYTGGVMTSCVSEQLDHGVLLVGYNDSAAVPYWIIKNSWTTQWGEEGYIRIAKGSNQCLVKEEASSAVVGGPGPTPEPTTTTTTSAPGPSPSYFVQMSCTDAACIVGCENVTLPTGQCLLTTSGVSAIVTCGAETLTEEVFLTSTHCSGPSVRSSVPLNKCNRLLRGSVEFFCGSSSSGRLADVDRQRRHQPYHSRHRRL
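Purified cruzain at 1.5 nM, pre-incubated 15 min with compound at room temperature in 100 mM sodium acetate pH 5.5, 5 mM DTT, 0.00005% Triton X-100. Reaction started with 2 uM Z-FR-AMC; AMC fluorescence increase over 60 s gives rate.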
RE007 growth inh – less growth of the S. pombe RE007 Vpr strain; 360,000 tested, 0.21% active; Potency, µM (titrated, usually from 92.2 µM), inactives show at the top dose activity change, negative = less growth; AID 651644; S. pombe RE007 Vpr strain, BacTiter-Glo ATP luminescence, 24 h; control for the full effect not named in the record; active = well fitted falling curve with a large enough effect; inconclusive = small, poorly fitted or top-dose-only effect; inactive = no such curve, though single readings can be large or run the other way;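 also: % is scaled to controls: 0 for no effect and ±100 for the full control effect; nearly all actives have a fitted effect of over 50% in size; the assay follows cell death caused by Vpr and the record does not say whether a fall means rescue or toxicity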
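Fission yeast strain RE007, carrying one chromosomally integrated HIV-1 vpr copy, was seeded at OD 0.01 in PMG+AL medium with 23 nL pinned compound. After 24 h at 30 °C and 99% humidity, viability was read by BacTiter-Glo luminescence.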
Cruzain Triton – blocks cruzain activity in presence of Triton detergent. P25779. purified cruzain, Z-FR-AMC fluorescence, 0.01% Triton. Potency, µM, for inactives: max response, negative = inhibition, usual class: inhibitors. 200,000 tested, 0.43% active. AID 1478;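 also: plate controls were neutral wells for no effect and buffer without enzyme for full effect; nearly all actives have a fitted effect of over 40% in size; top concentration of the series not given in the record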
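Detergent-containing arm of a paired screen for aggregation-based inhibition: 0.01% Triton X-100 present. Cruzain at 1.5 nM cleaved 2 uM Z-FR-AMC at pH 5.5 with 5 mM DTT; AMC fluorescence gain over 60 s measured activity.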
Starred values were filed as active, the others as inactive; u = inconclusive; x = no result given; & = joins results of further samples; [ ] = dose if it differs, or a comment. Unless noted, calls follow the shape of the dose curve; as a rule, active = well fitted curve in the direction sought with a large enough effect; inconclusive = small, poorly fitted or top-dose-only effect, or another doubt; inactive = no such curve, though single readings can be large; an effect the other way counts as inactive or inconclusive. Potency is read from the fitted curve at half-maximal effect.

Molecule,SARS PLP yeast,NS1 inh,2A StopGo,Marburg entry inh,Lassa entry inh,Cruzain inh noDet,RE007 growth inh,Cruzain Triton
Cc1cc(C)c(C)c(OCC(=O)Nc2ccc(S(=O)(=O)Nc3nc(C)cc(C)n3)cc2)c1,x,x,61.5%[activator],17.3%[46.1 µM],-7.2%[46.1 µM],u,x,-9.1%
Cc1ccc(C)c(NC(=S)N2CCN(CCO)CC2)c1,15.9%,10.6%,-10.8%,6.1%,1.2%,7.3%,7.0%,1.9%
Cc1cc(C)cc(NC(=S)N2CCN(c3ccc(F)cc3)CC2)c1,16.7%,2.4%,3.4%,2.1%,0.7%,u,-18.2%,-2.3%
O=C(CSc1nc(-c2ccccc2)cc(=O)[nH]1)Nc1ccc(F)c(F)c1,-0.8%,1.6%,21.9%,12.6%[46.1 µM],27.7%[46.1 µM],x,-9.9%,x
COc1ccccc1OCC(=O)NCc1ccco1,-3.8%,-8.2%,0.0%,11.6%,u,0.2%,26.8%,2.8%
COc1ccc(-c2noc(CNC(=O)c3ccoc3C)n2)cc1,-8.6%,-6.0%,5.1%,-2.5%[46.1 µM],1.6%[46.1 µM],x,14.8%,x
CCNC(=O)NC(=O)CN(C)c1ccccc1,2.4%,x,-8.1%,4.6%[46.1 µM],12.7%[46.1 µM],x,16.2%,x
Cc1ccc(NC(=O)C2CC(=O)N/C(=N/NC(=O)c3ccc(C)cc3)S2)cc1 (stereo not drawn),19.0%,-10.9%,1.5%,2.4%,0.7%,1.6%,-5.9%,-4.9%
CN(CC(=O)Nc1cccc(F)c1)C(=O)c1ccc(-c2cccc(C(F)(F)F)c2)o1,-3.9%,x,-19.7%,u,18.1%,x,-15.2%,x
O=C1CCC(C(=O)O)N1 (stereo not drawn),0.7%,-8.7%,-11.5%,x,x,x,11.7%,x
COc1cccc(N2C(=O)C3CCCN3C2c2cccs2)c1 (stereo not drawn),-1.3%,x,18.7%,-2.5%[46.1 µM],20.7%[46.1 µM],x,-10.1%,x
Cc1oc(-c2ccc(C(=O)NCc3ccccc3)cc2)nc1CS(=O)(=O)c1ccccc1,x,x,u,x,-1.6%[46.1 µM],u,x,-5.9%
CN(CC(=O)Nc1cccc(F)c1)C(=O)c1sccc1-c1ccccc1,-4.4%,x,-15.2%,-19.2%[46.1 µM],-19.8%,x,-1.8%,x
Cc1nc(CCNC(=O)CC2C(=O)NCCN2Cc2ccccc2)sc1C (stereo not drawn),1.6%,8.4%,-8.2%,14.4%,25.7%,x,-15.0%,x
COc1ccccc1N(C(=O)CCl)c1cn(C(C)=O)c2ccccc12,-1.3%,3.0%,17.8µM*,x,x,x,-0.3%,x
Nc1nonc1-n1nnc(C(=O)N/N=C/c2ccc(Br)cc2)c1CSC1=NCCS1,-10.4%,17.3%,-54.4%,0.0%,u,u,-2.4%,-5.5%
COc1ccc(C(=O)C2CCCN(C(=O)c3cccnc3OC)C2)c(C)c1 (stereo not drawn),0.3%,-4.7%,14.5%,8.3%[46.1 µM],-22.9%[46.1 µM],x,-6.1%,x
COc1ccc(C(=O)NN2CC(O)=C(c3nc4ccccc4n3C)C2=N)cc1OC,14.2%,3.6%,-7.7%,8.3%,5.3%,-23.5%,1.2%,3.7%
CCc1nnc(NC(=O)CSc2nnc(CNc3cccc(Cl)c3)n2CC)s1,1.8%,13.8%,-10.5%,-16.2%,-11.5%,15.8%,-9.5%,8.4%
Cc1ccc(NC(=O)CCc2c(C)nc3ncnn3c2C)cc1Cl,x,x,-16.1%,-16.8%[46.1 µM],u,9.1%,x,-0.7%
CCN(CC)CCNC(=O)c1[nH]c2ccccc2c1Sc1ccc(Cl)cc1,x,x,-21.6%,-7.5%[46.1 µM],8.7%[46.1 µM],6.5%,x,-4.6%
O=C(CSc1nc(=O)[nH]c2c1CCCC2)Nc1ccccc1C(F)(F)F,x,x,-20.9%,x,-27.8%[46.1 µM],-14.3%,x,2.6%
O=C1CC(c2ccc(F)cc2)Cc2nc(N3CCc4ccccc43)ncc21 (stereo not drawn),2.2%,7.08µM*,x,0.3%,x,u,x,-1.7%
O=C(c1cc(-c2ccccc2)on1)N1CCc2ccccc2C1,2.6%,0.9%,43.4%[activator],2.1%[46.1 µM],u,x,-11.6%,x
O=C(CCS(=O)(=O)c1ccc(Br)cc1)Nc1cc(F)ccc1F,-6.1%,-12.7%,-6.2%,u,-7.8%,-7.3%,-0.4%,-5.2%
CCOC(=O)CSc1ccc(C(=O)N2CCC3(CC2)OCCO3)cc1[N+](=O)[O-],5.2%,-4.4%,-15.7%,x,x,x,25.2%,x
CC(C)CC(=O)N1CCC(O)(CS(=O)(=O)Cc2ccccc2Cl)CC1,2.7%,8.0%,6.9%,0.2%,16.6%,0.6%,-6.2%,3.3%
O=C(NCCN1CCOCC1)Nc1ccccc1,13.0%,0.8%,5.2%,16.8%[46.1 µM],u,2.6%,-4.1%,0.6%
C=CCNC(=O)c1ccc2c3n(nc2c1)-c1ccccc1CO3,-8.6%,-61.2%,-18.4%,x,x,x,u,x
OCCCNc1nc(-c2ccccc2)c2cc(Br)ccc2n1,-2.5%,0.7%,-19.5%,u,-4.7%,x,0.4%,x

Arranged by molar mass (lowest first): part of the list above
Molecule,SARS PLP yeast,NS1 inh,2A StopGo,Marburg entry inh,Lassa entry inh,Cruzain inh noDet,RE007 growth inh,Cruzain Triton
Cc1cc(C)cc(NC(=S)N2CCN(c3ccc(F)cc3)CC2)c1,16.7%,2.4%,3.4%,2.1%,0.7%,u,-18.2%,-2.3%
Cc1ccc(NC(=O)CCc2c(C)nc3ncnn3c2C)cc1Cl,x,x,-16.1%,-16.8%[46.1 µM],u,9.1%,x,-0.7%
Cc1ccc(NC(=O)C2CC(=O)N/C(=N/NC(=O)c3ccc(C)cc3)S2)cc1 (stereo not drawn),19.0%,-10.9%,1.5%,2.4%,0.7%,1.6%,-5.9%,-4.9%
CN(CC(=O)Nc1cccc(F)c1)C(=O)c1ccc(-c2cccc(C(F)(F)F)c2)o1,-3.9%,x,-19.7%,u,18.1%,x,-15.2%,x

Continued.
Molecule,SARS PLP yeast,NS1 inh,2A StopGo,Marburg entry inh,Lassa entry inh,Cruzain inh noDet,RE007 growth inh,Cruzain Triton
O=C(Cn1cnc2c(NCc3ccccc3)ncnc21)N1CCN(c2ccccn2)CC1,-7.1%,x,-26.8%,4.7%,x,x,8.8%,x
Cc1nn(-c2cccc(C(F)(F)F)c2)c(Cl)c1/C=N/Nc1cccc(C(=O)O)c1,-37.3%,23.0%,-17.9%,u,u,17.7%,u,-22.8%
CNC(=O)Nc1ccc(Cl)cc1,-31.4%,-21.7%,23.8%,29.3%,21.3%,-5.8%,19.6%,0.2%
CN1CCN(C(=O)c2ccc(-c3ccccc3)cc2)CC1,5.6%,21.7%,14.8%,15.8%,17.9%,x,-11.7%,x
COc1ccccc1CNC(=O)CSc1ccccc1,0.8%,-0.9%,44.4%[activator],-25.5%[46.1 µM],-23.5%,x,-13.7%,x
Nn1c(Nc2ccccc2)nc2sc3c(c2c1=O)CCCC3,-2.1%,0.7%,7.6%,-2.8%,25.6%,x,-11.2%,x
COc1ccc(C(=O)N/N=C/c2cn[nH]c2-c2ccc(OC)cc2OC)cc1,-3.9%,7.5%,-27.0%,21.5%,4.0%,-8.6%,0.5%,-3.2%
CC(=O)c1c(NCCc2ccccc2)cc(C)oc1=O,2.0%,-13.7%,-16.5%,7.7%,-0.9%,-5.0%,13.0%,1.8%
CC1CN(C(=O)CSc2ncnc3sccc23)CC(C)O1 (stereo not drawn),4.0%,-2.3%,-14.6%,16.6%,0.8%,6.6%,-1.1%,-0.6%
COC(=O)Nc1ccc(N2CCOCC2)c(S(=O)(=O)N2CCOCC2)c1,4.9%,1.6%,-10.5%,x,x,x,5.0%,x
Cc1cc(C)n2nc(SCc3nnc(SCCCCl)o3)nc2n1,3.7%,-15.9%,x,-2.5%,6.1%,3.5%,1.3%,4.4%
CCN(CC)CCCn1c(=S)[nH]c2ccc(Cl)cc2c1=O,3.4%,-3.7%,3.8%,-5.5%,-0.8%,0.9%,-10.0%,-9.2%
COc1cc(Cc2nc3ccc(S(=O)(=O)N4CCOCC4)cc3[nH]2)cc(OC)c1OC,18.9%,18.0%,-19.6%,-0.5%[46.1 µM],3.6%,5.1%,9.4%,4.9%
Nc1ccc2oc3ncccc3c(=O)c2c1,-9.5%,18.2%,43.6%[activator],12.4%&12.4%,25.8%[14.3 µM],-6.7%,-16.3%,-1.5%
CCCc1cc(=O)c2ccc(OC/C(C)=N/O)cc2o1,-0.3%,-5.2%,-4.7%,x,x,x,2.9%,x
CC1CC(C)(C)OC(c2ccc(C(C)C)cc2)O1 (stereo not drawn),x,x,2.0%,4.1%,-11.3%,x,-1.5%,x
CCN(Cc1ccccc1)C(=O)C1CCN(Cc2ccc(SC)cc2)CC1,0.5%,-1.1%,-15.4%,x,x,x,10.8%,x
CC1CCN(S(=O)(=O)c2ccc(NC(=O)Cc3ccc(S(=O)(=O)N4CCOCC4)s3)cc2)CC1,-0.5%,x,u,u,-8.6%,x,-6.9%,x
COc1ccc(Cn2c(CCC(=O)Nc3ccc(C)cc3)nc3cccnc32)cc1,-4.1%,9.6%,4.2%&-12.1%,u,6.6%[46.1 µM],11.7%&17.3%,11.8%,-1.7%&-1.0%
O=C(NCc1ccccc1)C(c1ccco1)N(C(=O)c1ccccn1)c1ccccc1 (stereo not drawn),0.3%,-2.4%,-0.9%,-11.0%[46.1 µM],-15.0%,x,-6.8%,x
CCOc1nc(Nc2ccc(OC)cc2OC)nc(OCC)n1,4.6%,-10.6%,-17.7%,x,x,x,-2.0%,x

Screening data from PubChem BioAssay.
